Mtb betalactam: beta-lactam sensitization of Mtb H37Rv, H37Rv | hit rate 0.27% among 330,000 | AID 434955, 2010 | inhibition, % at 25 µM | M. tuberculosis H37Rv growth with meropenem, percent inhibition; hits of this screen are not shown here;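 active = about 74% or more and at least 40 points above the plate without the antibiotic, then above 30% in a dose series; inconclusive = first-round hits that could not be retested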;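 also: growth measured after seven days incubation then overnight dye step; 0% = bacteria only wells and 100% = bacteria with antibiotic; twin plates without the antibiotic show which effects depend on it; some results filed as inactive read as strong as hits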
YopH inh: YopH tyrosine phosphatase inhibitors, primary screen, biochemical, fluorescence Ex485/Em525 | AID 898, 2007 | inhibition, %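 (about 10 µM by stock and volumes)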 | hit rate 0.16% among 140,000 | YopH tyrosine phosphatase [Yersinia enterocolitica];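 active = inhibition of 50% or more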;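 also: controls were vehicle for no effect and minimum signal wells for full effect; inactives centre near -20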
RecA intein inh: Mtb RecA intein splicing inhibitors, primary screen, biochemical, fluorescence, HTS. cell-free RecA intein splicing. inhibition, %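 (about 9 µM by stock and volumes)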. hit rate 0.75% among 290,000. AID 2221, 2009; in the data active = inhibition above about 30%; inconclusive = no clear call, values can overlap the other calls;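 also: 0% = vehicle wells and 100% = reference inhibitor control wells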
Target sequence (P9WHJ3 whole entry, looked up): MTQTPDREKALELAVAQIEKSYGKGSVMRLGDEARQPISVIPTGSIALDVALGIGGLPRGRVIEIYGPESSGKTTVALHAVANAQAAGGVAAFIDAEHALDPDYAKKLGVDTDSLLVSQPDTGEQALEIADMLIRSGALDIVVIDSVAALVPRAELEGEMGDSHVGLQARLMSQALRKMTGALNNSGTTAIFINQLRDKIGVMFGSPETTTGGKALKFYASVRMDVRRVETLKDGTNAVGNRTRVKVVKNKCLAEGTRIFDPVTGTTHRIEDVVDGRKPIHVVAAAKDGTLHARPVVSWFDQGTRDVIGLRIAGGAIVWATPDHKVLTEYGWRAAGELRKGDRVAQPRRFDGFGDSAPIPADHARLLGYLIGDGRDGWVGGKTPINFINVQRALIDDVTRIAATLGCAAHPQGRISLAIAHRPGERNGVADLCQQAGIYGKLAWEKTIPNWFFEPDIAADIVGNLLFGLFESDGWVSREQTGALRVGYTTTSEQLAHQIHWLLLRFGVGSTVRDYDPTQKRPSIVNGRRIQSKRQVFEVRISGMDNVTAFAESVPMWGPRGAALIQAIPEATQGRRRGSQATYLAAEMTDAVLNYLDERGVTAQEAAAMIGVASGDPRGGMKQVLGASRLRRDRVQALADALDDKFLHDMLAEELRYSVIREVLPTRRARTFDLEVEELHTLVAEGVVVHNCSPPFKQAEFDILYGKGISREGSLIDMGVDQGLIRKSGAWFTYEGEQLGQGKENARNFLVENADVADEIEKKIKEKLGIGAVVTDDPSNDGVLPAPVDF
Arbovirus anti: antivirals against arbovirus infection, primary screen, cell-based, full library, 10K replicate subset; inhibition, % at 10 µM; arbovirus infection cell-based antiviral screen; hit rate 0.37% among 200,000; AID 1251, 2008;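 active = inhibition from about 30%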;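 also: bluetongue infection of BSR cells; cell survival read as ATP light after 72 h; 0% = infected wells without compound and 100% = uninfected wells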
Mtb growth: M. tuberculosis H37Rv growth inhibitors, H37Rv strain (AID 1626); M. tuberculosis H37Rv growth inhibition; higher % means a stronger effect; inhibition, % at 10 µM, or IC50 in µM where a hit was titrated; hit rate 0.95% among 220,000;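 active = confirmed in a dose series; inconclusive = inhibition above 80% but not taken into the dose series; inactive = below 80% or under 30% at every dose of the series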;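 also: bacteria incubated seven days before Alamar blue readout; 0% = bacteria only wells and 100% = bacteria with antibiotic wells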
Arbovirus anti repeat: second read-out of Arbovirus anti, no call of its own (marks repeat the call); inhibition, %; measured here: 10K subset replicate screen; many hits read low in the repeat;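 first of two repeat runs on a subset; 0% = infected and 100% = uninfected wells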
An asterisk follows results filed as active; ? = inconclusive; / = no result given.

Start of the data: the first five entries, to show the layout:
SMILES	Mtb betalactam	YopH inh	RecA intein inh	Arbovirus anti	Mtb growth	others
COc1ccc(-c2noc(C3CCCN(C(=O)Nc4ccccc4F)C3)n2)cc1 (centres undefined)	4	/	1.7	0	-4%
O=c1c(=O)n2c(nn1Cc1ccc(F)cc1)sc1ccccc12	8	/	-1.4	/	8%
Cc1ccc(C23CC4CC(CC(CN)(C4)C2)C3)cc1	/	/	-3.6	-33	9%
CN(C(=O)COC(=O)COc1ccc(Cl)cc1)C1CCCCC1	61	-47	-0.5	3	-1%
Cc1cc(C)c(-c2csc(NC(=O)c3n[nH]c(=O)c4ccccc34)n2)c(C)c1	-3	-20	-1.2	1	19%

The list itself, from the start:
SMILES	Mtb betalactam	YopH inh	RecA intein inh	Arbovirus anti	Mtb growth	others
COc1ccc(-c2noc(C3CCCN(C(=O)Nc4ccccc4F)C3)n2)cc1 (centres undefined)	4	/	1.7	0	-4%
O=c1c(=O)n2c(nn1Cc1ccc(F)cc1)sc1ccccc12	8	/	-1.4	/	8%
Cc1ccc(C23CC4CC(CC(CN)(C4)C2)C3)cc1	/	/	-3.6	-33	9%
CN(C(=O)COC(=O)COc1ccc(Cl)cc1)C1CCCCC1	61	-47	-0.5	3	-1%
Cc1cc(C)c(-c2csc(NC(=O)c3n[nH]c(=O)c4ccccc34)n2)c(C)c1	-3	-20	-1.2	1	19%
Cc1ccc(S(=O)(=O)N/N=C\c2ccccc2OCc2ccccc2)cc1	2	-15	7.6	-8	-7%
COc1ccc2oc(=O)c(-c3ccccc3C(=O)N3CCOCC3)cc2c1	6	-17	-2.0	4	-5%
CC(=O)Nc1ccc(-c2nnc(SCc3ccc(C)cc3)n2C)cc1	?	-26	3.4	-2	-1%
CCCCNS(=O)(=O)c1ccc(NC(=O)c2cccs2)cc1	1	/	-0.3	0	5%
COc1ccc(NC(=O)N(Cc2cccnc2)Cc2ccccc2Cl)c(OC)c1	-12	-50	3.0	4	4%	Arbovirus anti repeat=-4
O=C(CSc1nnc(-c2cccnc2)o1)NNC(=O)c1ccc(Br)cc1	-4	/	-5.0	/	-8%
O=C(CSC1=NC2(CCCCC2)N=C1c1ccccc1)Nc1ccc2c(c1)OCCO2	9	-19	-8.1	-5	/
COC(=O)Nc1ccc(S(=O)(=O)NC2CCS(=O)(=O)C2)cc1 (centres undefined)	-9	/	0.6	/	1%
COCCn1c(C)cc(/C=C2/NC(=O)N(Cc3ccc(C)cc3)C2=O)c1C	-8	/	-2.5	/	-10%
Cc1cccc(N2CCN(C(=O)CCNC(=O)Cn3ccc4ccccc4c3=O)CC2)c1C	-1	-35	-3.3	4	-3%
O=C(/C(=C/c1ccc(Cl)cc1)c1nc2ccccc2[nH]1)c1cccs1	?	-17	18	-46	11%
COc1ccc(/C=N/n2c(C3CCCCC3)n[nH]c2=S)c(OC)c1	?	/	3.3	/	/
O=C(CNS(=O)(=O)c1ccc(Br)s1)NCc1ccccc1	7	/	1.6	/	/
CCN(CC)C(=O)CC(c1ccc(N(C)C)cc1)c1c(OC)cc(OC)c2ccc(=O)oc12 (centres undefined)	2	/	-2.3	/	17%
Cc1cc(Nc2cccc(C)c2C)n2nc(C)nc2n1	3	-12	2.2	-1	/	Arbovirus anti repeat=0
CCn1c(SCC(=O)Nc2ccc(OC)cc2)nc2c(c1=O)SCC2	-2	/	-0.5	/	/
CCOC(=O)c1c(NC(=O)c2ccccc2)sc2c1CCc1ccccc1-2	-4	-3	1.1	3	19%
O=C1NC(=S)N(C(=O)c2ccc(F)cc2)/C1=C/c1ccccc1	-2	-28	18	22	?
COc1ccc(C)cc1Nc1n[n+](-c2ccccc2)c(-c2c(Cl)cccc2Cl)s1	100	/	27	/	/
Cc1ccccc1-c1nnc(NC(=O)c2ccc(N3C(=O)CCC3=O)cc2)s1	6	-29	-3.2	-2	/
Cc1cc(NC(=O)C2CC(=O)N(c3ccc(Cl)cc3)C2)no1 (centres undefined)	-4	/	0.0	/	/
COc1ccc(C(=O)Nc2ccc3oc(-c4cccc(F)c4)nc3c2)cc1OC	3	-2	-1.1	-6	/	Arbovirus anti repeat=-11
COc1ccc(-c2ccc3c(N)c(C(=O)c4cccc(OC)c4)sc3n2)cc1	-2	-12	-4.2	-4	-2%
Cn1c(N)c(C(=O)COC(=O)CSc2cccc3cccc(Cl)c23)c(=O)n(C)c1=O	-7	/	-2.4	17	-5%
COc1cc(C(=O)c2nccc3cc(OC)c(OC)cc23)c([N+](=O)[O-])cc1OC	24	/	95*	5	1%
CN(C)/C=C/C(=O)c1ccc(F)cc1F	-4	/	4.1	/	/
CCNC(=O)NC(=O)CSc1nc2ccccc2n1CCOC	-6	-10	-0.5	2	-3%
Cc1ccc(NC(=O)CCN2C(=O)c3ccccc3S2(=O)=O)cc1C	-7	/	-2.8	/	/
O=C(Nn1cnc2ccccc2c1=O)c1cccc(Cl)c1	0	/	0.6	-4	7%
CCOCCCNC(=O)c1ccc(Cn2c(=S)[nH]c3c([nH]c4ccc(OC)cc43)c2=O)cc1	10	/	/	3	-8%
CCOC(=O)C1CCN(C(=O)C2CCN(S(=O)(=O)c3cccc4cccnc34)CC2)CC1	/	-37	/	4	-14%	Arbovirus anti repeat=8
CC(=O)C1=C(C)Nc2ncnn2C1c1ccc(F)cc1 (centres undefined)	-14	/	-0.3	/	/
COc1ccc(C2N(c3cc(C)on3)C(=O)C3CCCN32)cc1 (centres undefined)	-2	/	-1.0	0	-5%
CC(NCCOc1ccccc1F)C(=O)Nc1ccc(S(N)(=O)=O)cc1 (centres undefined)	-1	/	-1.6	/	/
O=C(/C=C/Nc1cccc(C(F)(F)F)c1)c1ccco1	4	/	1.2	-2	5%
Cc1c(-n2c(SCC(=O)O)nnc2-c2ccccc2Cl)c(=O)n(-c2ccccc2)n1C	-6	-12	/	-5	/
Cc1cc(OCc2ccc(C(=O)Nc3ccc(C(=O)O)cc3)o2)ccc1Cl	5	/	3.4	/	/
CCOc1ccc(C2C(C#N)=C(N)Oc3n[nH]c(C)c32)cc1OC(=O)C1CC1 (centres undefined)	5	-16	66*	6	3%
COC(=O)c1ccccc1NC(=O)CCS(=O)(=O)c1cc2c(cc1C)NC(=O)CO2	-2	/	-3.9	/	/
NC(=O)Cn1c(=O)n(C2CCCCC2)c(=O)c2c3c(sc21)CCCCC3	73	-25	-1.9	-22	6%
COc1ccc(NC(=O)[C@@H]2CC=C[C@@H]3CCN(C4CCCCC4)C(=O)[C@@H]32)cc1	-8	/	0.8	/	8%
O=C(NCc1ccc(OC(F)(F)F)cc1)C1CC(c2c(Cl)cccc2Cl)=NO1 (centres undefined)	0	-3	3.5	-7	3%
O=C(O)c1ccccc1-c1ccccc1C(=O)Nc1ccc(F)cc1	15	/	-0.6	/	/
Cc1cc(C(=O)CSc2nnnn2C)c(C)n1CCc1ccc(F)cc1	-1	-25	1.6	0	-4%
CCS(=O)(=O)N1CCC(C(=O)Oc2ccccc2OC)CC1	6	/	-2.1	/	/
COc1ccccc1/C=C(/C(=O)OCC(=O)N(C)Cc1ccccc1)c1ccccc1	-3	-19	0.6	6	3%
CC(C)(C)NC(=O)CSc1nnc(NC(=O)c2ccccc2Cl)s1	-8	/	1.3	19	4%
CNC(=O)Nc1cc(NC(=O)NC)cc(C(F)(F)F)c1	-11	/	0.0	/	-12%
COC(=O)c1ccc(/C=N/N2CCN(Cc3ccccc3)CC2)cc1	-7	-43	3.8	0	?
O=C(N/N=C/c1cc2c(cc1Cl)OCO2)c1ccccn1	-3	-34	0.9	/	4%
CCOC(=O)C1CCN(C(=O)CCNC(=O)c2cc(OC)c(OC)c(OC)c2)CC1	-10	-54	11	-2	6%
CCOC(=O)C1=C(O)CCn2c1nc1ccccc12	/	-24	-1.4	4	6%
O=[N+]([O-])c1ccc(Nc2ccccc2)c2nonc12	89	/	8.8	/	/
COc1ccc2nc(SCCOC(=O)Nc3ccc(Cl)cc3)nc(C)c2c1	6	-3	10	21	-7%
Cn1ccnc1C(=O)c1cc(SCC(=O)NC2CC2)nc2ccccc12	-10	/	2.3	3	-1%

At a glance, some entries already given:
SMILES	Mtb betalactam	YopH inh	RecA intein inh	Arbovirus anti	Mtb growth	others
COc1ccc2nc(SCCOC(=O)Nc3ccc(Cl)cc3)nc(C)c2c1	6	-3	10	21	-7%
Cn1ccnc1C(=O)c1cc(SCC(=O)NC2CC2)nc2ccccc12	-10	/	2.3	3	-1%

Later entries
SMILES	Mtb betalactam	YopH inh	RecA intein inh	Arbovirus anti	Mtb growth	others
NS(=O)(=O)c1ccc(Sc2nc3ccccc3s2)c([N+](=O)[O-])c1	88	/	24	/	5%
COc1ccccc1C(=O)N(CCN(C)C)c1nc2cc(C)cc(C)c2s1	0	/	-0.5	-7	6%
COc1ccc(-c2cc3nc(C)cc(NCCO)n3n2)cc1	4	-24	0.1	6	-1%
O=c1[nH]c2ccc(Cl)cc2c(=O)n1Cc1ccco1	-13	-30	4.5	8	4%
CCOc1cc(S(=O)(=O)N2CCN(CC)CC2)ccc1Cl	-2	-11	0.0	2	-4%
CCc1ccc(NC(=O)C2CCN(S(=O)(=O)c3c(C)[nH]c(=O)[nH]c3=O)CC2)cc1	0	-10	-0.5	12	14%
O=C1NC(=O)/C(=C\c2cn(CC(=O)N3CCOCC3)c3ccccc23)S1	2	/	-3.2	/	/
C=CCOn1c(=O)c(-c2ccc(OC)cc2)[n+]([O-])c2ccccc21	-4	-40	1.2	-7	-10%
Cc1ccc(-c2nnn(CC(=O)N(c3cccc(F)c3)C(C(=O)NC3CCCC3)c3ccncc3)n2)o1 (centres undefined)	0	/	-0.2	/	/
COc1ccc(NC(=O)CN2CCN(c3ccccc3Cl)CC2)cc1	-7	-33	1.8	3	2%
Cc1ccc(C(=O)NCCN2CCOCC2)cc1C	-1	/	-7.1	/	/
Cc1ccc([N+](=O)[O-])c(OCCn2cnc3ccccc32)c1	-7	/	-2.4	-2	-1%
CCN(Cc1ccncc1)C(=O)c1cc(COc2ccc(F)cc2Cl)on1	3	/	3.5	/	/
O=C(CN1CCN(C/C=C/c2ccccc2)CC1)Nc1cc([N+](=O)[O-])ccc1Cl	5	-29	2.8	3	3%
CC(CCN1C(Nc2ccccc2)=NC[C@@H]1Cc1ccccc1)c1ccccc1 (some centres undefined)	1	/	1.7	/	/
CSc1nc(-c2ccccc2)nn1C(=O)c1ccco1	-5	15	11	0	2%
Cc1ccc(C)c(-n2c3nc(=O)[nH]c(=O)c-3cc3cc([N+](=O)[O-])ccc32)c1	-4	-29	/	18	12%
COc1cccc(CN2CCN(Cc3ccc(OC)c(OC)c3)CC2CCO)c1 (centres undefined)	-1	/	5.9	3	-3%
CN(c1ccccc1)S(=O)(=O)c1ccc(Cl)c(C(=O)Nc2nc3ccccc3[nH]2)c1	9	-38	5.3	-13	?
Cc1ccc[n+](CC(=O)Nc2cc(C(F)(F)F)ccc2N2CCOCC2)c1	2	/	1.0	21	0%
CC12CN3CC(C)(CN(C1)C3c1ccncc1)C2=O (centres undefined)	-2	-28	0.9	-2	-12%
COc1cc(C)c(C(C)C)cc1S(=O)(=O)n1cnc(C)c1	1	-30	4.3	-6	1%	Arbovirus anti repeat=-12
CC(C)NC(=O)/C(C#N)=C\c1ccc(N(C)C)c(Br)c1	8	/	1.5	-4	1%
CN(C(=O)COC(=O)C(Cc1ccccc1)NC(=O)c1ccccc1)c1ccccc1 (centres undefined)	1	-6	1.7	-1	-3%
Cc1cc(=O)[nH]c(SCC(=O)Nc2ccc(Br)cc2)n1	1	/	-0.2	/	-4%
CCOc1ccc(N(CC(=O)NC2CCCC2)C(=O)CSc2nnc(COc3ccccc3)o2)cc1	0	10	-0.7	-10	5%
CCOC(=O)c1sc(NC(=O)CCN2CCC(C)CC2)c(C(=O)OCC)c1C	-12	/	-2.2	5	6%
Cc1ccc(CNC(=O)COC(=O)CCOc2ccc(C)cc2)cc1	-2	/	-1.2	/	/
CC(C)CNC(=S)Nc1ccc(S(N)(=O)=O)cc1	-6	-20	-4.7	2	-5%
CCOC(=O)C1=C(C)N(C)C(=O)NC1c1cccc(O)c1 (centres undefined)	2	2	-3.5	-1	-2%	Arbovirus anti repeat=3
CCOC(=O)CCc1c(C)c2ccc(OC3CCCCC3=O)c(C)c2oc1=O (centres undefined)	41	/	-1.8	/	/
Cc1ccc(CNS(=O)(=O)c2cc3c4c(c2)CCN4C(=O)CC3)cc1	-16	/	-1.8	/	/
Cc1cc(C)cc(NC2=C(N)C(=O)c3ccccc3C2=O)c1	2	/	5.3	/	/
Cc1[nH]n(-c2ccccc2)c(=O)c1/C=N/n1c(C)nc2ccccc2c1=O	12	-34	/	-8	-3%

The list is partial; rates above refer to the full screens.
